Assay outcomes from PubChem BioAssay.
hNpr1 antagonist – antagonists of human natriuretic peptide receptor Npr1; Potency, µM (titrated, usually from 46.3 µM), for the others: at the highest dose activity change, negative = inhibition, actives largely listed as inhibitors; hit rate 1.6% among 76,000; P16066; HEK293 hNpr1 GloSensor cGMP, ANP-stimulated luminescence; AID 1347048; active = well fitted inhibition curve with a large enough effect; inconclusive = small, poorly fitted or top-dose-only effect; inactive = no such curve, though single readings can be large or run the other way;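 further: nearly all actives have a fitted effect of over 60% in size; nearly all hits also lower the signal before the agonist is added; a reference antagonist and vehicle were the controls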
Target sequence (P16066 whole entry, looked up): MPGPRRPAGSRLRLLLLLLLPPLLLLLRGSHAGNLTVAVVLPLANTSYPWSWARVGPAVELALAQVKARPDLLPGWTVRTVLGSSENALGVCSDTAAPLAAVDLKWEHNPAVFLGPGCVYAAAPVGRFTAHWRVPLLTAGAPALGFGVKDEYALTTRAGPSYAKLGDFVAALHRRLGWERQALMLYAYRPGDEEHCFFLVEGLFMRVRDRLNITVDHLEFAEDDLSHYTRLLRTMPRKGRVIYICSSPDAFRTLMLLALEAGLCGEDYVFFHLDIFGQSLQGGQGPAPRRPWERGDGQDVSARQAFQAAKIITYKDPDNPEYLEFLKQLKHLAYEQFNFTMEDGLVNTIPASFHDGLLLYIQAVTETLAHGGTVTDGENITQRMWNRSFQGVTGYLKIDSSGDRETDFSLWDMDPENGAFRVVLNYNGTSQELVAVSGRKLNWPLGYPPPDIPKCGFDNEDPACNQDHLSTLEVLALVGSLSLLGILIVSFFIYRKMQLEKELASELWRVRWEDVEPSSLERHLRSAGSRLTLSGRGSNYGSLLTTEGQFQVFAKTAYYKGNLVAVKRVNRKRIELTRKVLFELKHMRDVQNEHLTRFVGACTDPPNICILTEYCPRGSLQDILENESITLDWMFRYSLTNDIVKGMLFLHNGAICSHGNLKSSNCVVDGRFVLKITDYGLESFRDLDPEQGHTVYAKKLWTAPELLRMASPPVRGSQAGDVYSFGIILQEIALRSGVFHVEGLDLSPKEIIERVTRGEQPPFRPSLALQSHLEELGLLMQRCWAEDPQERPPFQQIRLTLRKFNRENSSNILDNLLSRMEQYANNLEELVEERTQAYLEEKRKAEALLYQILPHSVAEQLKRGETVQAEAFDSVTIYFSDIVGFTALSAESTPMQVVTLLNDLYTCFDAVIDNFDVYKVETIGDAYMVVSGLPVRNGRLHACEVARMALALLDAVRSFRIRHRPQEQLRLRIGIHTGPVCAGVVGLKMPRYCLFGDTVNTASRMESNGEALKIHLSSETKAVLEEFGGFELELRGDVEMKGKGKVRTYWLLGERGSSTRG
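Compound pre-incubated 30 min at room temperature on GloSensor-loaded HEK293 cells stably carrying hNpr1 and the pGS-40F cGMP biosensor. Stimulation uses hNppA at 0.1 nM final; luminescence is taken at baseline and 20 min post-agonist.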
* marks the source's active call; other numbers are inactive results; ? = inconclusive; [ ] = remark or other dose. On the % scale 0 is the no-effect control and ±100 the full control effect; potency means the concentration at half of the fitted maximal effect.

SMILES | hNpr1 antagonist
O=C1NCCOCCN(C(=O)NC2CCCCC2)[C@@H]2CCCC[C@H]12 | -2%
COCC1CN(Cc2sccc2C)CC12CCNCC2 (configuration not stated) | 1%
COc1ccc2c(c1)CN(Cc1ccc(C(F)(F)F)cc1)CC[C@H]1COC(=O)N21 | -1%[70.6 µM]
O=C(c1cnc2c(c1)N([S+](=O)([O-])c1cccnc1)CCC2)N1CCN(Cc2ccccc2)CC1 | 5%
O=C(Cc1cccnc1)N1CCC(N2C(=O)C(OCC3CC3)C23CCCCC3)CC1 (configuration not stated) | -2%
O=C(c1cccs1)N1CCC(N2C(=O)C3(CCCCC3)C2c2ccncc2)CC1 (configuration not stated) | 8%
O=C(c1cccc2[nH]ccc12)N1CC(Oc2ccc(-c3nc(-c4ccccc4)no3)cc2)C1 | -27%
CC(C)CNc1ccc2c(n1)C(C)(C(=O)NCc1ccco1)CN(Cc1ccccc1)C2 (configuration not stated) | -17%[70.6 µM]
CNC(=O)[C@@H]1C[C@@H](N)CN1C(=O)c1cnn(-c2ccccc2OC)c1 | -6%
COCC(=O)N1CCC(C(=O)N2CCC2c2ccccc2)CC1 (configuration not stated) | -1%
Cc1cc(-c2cc3c(cn2)CN(Cc2cccc(F)c2)CCN3)ccn1 | -24%[70.6 µM]
CNC(=O)C1(N2CCC[C@H]2C(=O)NC(C)(C)C)COC1 | 5%[70.6 µM]

Looked up above:
O=C(Cc1cccnc1)N1CCC(N2C(=O)C(OCC3CC3)C23CCCCC3)CC1 (configuration not stated) – hNpr1 antagonist = -2%
O=C(c1cnc2c(c1)N([S+](=O)([O-])c1cccnc1)CCC2)N1CCN(Cc2ccccc2)CC1 – hNpr1 antagonist = 5%
COc1ccc2c(c1)CN(Cc1ccc(C(F)(F)F)cc1)CC[C@H]1COC(=O)N21 – hNpr1 antagonist = -1%[70.6 µM]
O=C(c1cccc2[nH]ccc12)N1CC(Oc2ccc(-c3nc(-c4ccccc4)no3)cc2)C1 – hNpr1 antagonist = -27%
CC(C)CNc1ccc2c(n1)C(C)(C(=O)NCc1ccco1)CN(Cc1ccccc1)C2 (configuration not stated) – hNpr1 antagonist = -17%[70.6 µM]
CNC(=O)[C@@H]1C[C@@H](N)CN1C(=O)c1cnn(-c2ccccc2OC)c1 – hNpr1 antagonist = -6%

The list continues:
SMILES | hNpr1 antagonist
COCCN1C(=O)c2ccccc2C(C(=O)Nc2ccc(OC)cc2OC)C12CCCC2 (configuration not stated) | 4%
Cc1ccc(NC(=O)N2CCC(CC(=O)NCc3ccccc3)C2)cc1C (configuration not stated) | 0%
O=C(Nc1ccc(OC(F)(F)F)cc1)N[C@@H]1C=C(C(=O)N[C@H]2CCCNC2=O)C[C@@H](O)[C@@H]1O | 3%
COc1ccc(-c2cn3c(n2)CO[C@@H](CNC(=O)c2ccccc2OC)C3)cc1 | -30%[70.6 µM]
CC(C)CNC(=O)C1COC2(CCC(C)CC2)N1C(=O)c1cccc([N+](=O)[O-])c1 (configuration not stated) | -2%
COc1ccc(CNC(=O)C2Cn3cccc3C(=O)N2)cc1OC (configuration not stated) | 2%
O=C(c1ccccn1)N1CCC2(CC1)NC(=O)N(Cc1ccccc1Cl)C2=O | 13%
CNC(=O)[C@H]1C[C@H](Oc2ccccc2)CN1C(=O)CCn1nc(C)cc1C | -6%
Cn1c(Cn2ccnc2)nnc1C1CCCN(C(=O)c2ccc(CO)o2)C1 (configuration not stated) | 0%
COc1ccc(C(=O)N[C@H]2CO[C@H]3[C@@H]2OC[C@@H]3Nc2nccc(-c3cccs3)n2)cc1 | 0%
CN1C(=O)[C@@H]2C[C@@H](CN2C(=O)CCC(=O)O)Oc2ccccc21 | -1%[70.6 µM]
c1cncc(-c2ccnc(NCCc3noc(C4CCCC4)n3)n2)c1 | -4%
CCN(CC)C(=O)CCc1c(C)nn(-c2cccc(C)c2)c1Oc1ccccc1 | -25%
N[C@@H]1CC[C@@H]1NC(=O)c1cnc(-c2cccnc2)nc1 | 2%
C[C@]1(CO)[C@H]2Cc3sc(NC(=O)c4ccc(F)cc4)nc3[C@@H](CC(=O)NCc3cccnc3)[C@]2(C)CC[C@H]1O | 2%
CCN(CC)Cc1cnc2c(C(=O)NC3CCCNC3)cnn2c1 (configuration not stated) | 0%
COCCNC(=O)C[C@@H]1C[C@H]2O[C@H](CNC3CCCC3)[C@@H](O)[C@H]2O1 | 3%[70.6 µM]
Cc1cc(C)cc(-c2nc(C3CC(=O)N(c4ccc(F)cc4)C3)no2)c1 (configuration not stated) | 2%
O=C(COc1cccc(-c2nnc3n2CCCC3)c1)N1CCN(c2ccccc2F)CC1 | -1%
Cc1ccc(C)c(N2CCN(C(=O)c3cc(-c4ccncc4)cn3C)CC2)c1 | -18%
CC(C)N1CCC(CC(=O)N2CCCC(c3ccc(C(=O)O)cc3)C2)CC1 (configuration not stated) | 7%
COc1ccc(C(CC(=O)N(C)Cc2cnc3ccccn23)c2ccccc2)cc1 (configuration not stated) | 3%
COCC(=O)N1CCC(Oc2ccccc2C(=O)N2C[C@H]3CC[C@H]2C3)CC1 | 4%
CC(=O)N1CCC(Cc2noc(-c3ccc(F)cc3)n2)C1 (configuration not stated) | 0%
COc1ncccc1-c1cc2c(ccn2CC2CCN([S+](C)(=O)[O-])CC2)c(N2CCOCC2)n1 | 1%
CCCCc1ccc(NC(=O)c2ccc3c(c2)N(S(C)(=O)=O)CC3)cc1 | -20%
COc1ccc(S(=O)(=O)N2CCC(CC(=O)NCc3ccccc3)C2)cc1 (configuration not stated) | 2%
CCOc1ccc(C(=O)N2C[C@@H](COC)[C@H](c3ccncc3)C2)cc1 | -1%
CCCC(C)c1nnc(NC(=O)Cc2ccc(OC)cc2OC)s1 (configuration not stated) | -8%
CCCNC(=O)C(NC(=O)c1cccs1)C1CCN(C(=O)c2ccco2)CC1 (configuration not stated) | 4%
O=C([C@@H]1C[C@H](Oc2ccccc2)CN1C(=O)c1cccnc1)N1CCCC1 | 3%
O=C1CCCN1CCCN1C(=O)[C@@H]2C[C@@H](O)CN2C2(CN(C3COC3)C2)C1=O | -1%[70.6 µM]
C[C@]1(CO)C2CC[C@@H](O)[C@@H](CC(=O)N3CCC[C@H]3CO)[C@]2(C)CC[C@H]1OC(=O)Nc1ccc(Cl)c(Cl)c1 (some centres not stated) | -8%
Cc1cnc(C2CCOCC2)n1CC1CCN(C(=O)C2CC2)CC1 | -1%
COc1cccc(Nc2ncc(-c3ccc(OC)nc3)c3c2OCC3)c1 | -29%[70.6 µM]
COc1ncccc1-c1cc(C(=O)NCc2c(C)cc(C)[nH]c2=O)c2c(c1)N(C)CCO2 | -8%[70.6 µM]
O=C(NCCc1ccccn1)C1CCC(=O)N(C2CCCCCC2)C1 (configuration not stated) | 0%
Cn1cc(-c2cc(=O)c3ccnc(-c4cccc5[nH]ccc45)c3o2)cn1 | 1%[70.6 µM]
O=C(c1ccc(Cl)cc1)N1CCN(c2cc(-c3ccc(Cl)cc3)[nH]n2)CC1 | 11µM*
Cc1cccc(OCCc2noc(C3CCCN3C(=O)c3n[nH]c(=O)c4ccccc34)n2)c1 (configuration not stated) | -2%
O=C1CCN(C(=O)[C@@H]2CCCN2S(=O)(=O)c2cccc3cccnc23)CCCCCCN1 | -6%
Cc1cc(C(=O)N2CC[C@H](NC(=O)c3snnc3C)C[C@H]2C(=O)N[C@@H](Cc2cccs2)C(N)=O)n(C)n1 | 4%
CN(Cc1cccnc1)C(=O)c1c(OCC2CC2)cc(=O)n2c1CCCCC2 | 2%
Cc1cccc(NC(=O)Nc2ccc(C)n(CC(=O)O)c2=O)c1 | 2%
CCc1ccc(C(=O)N2CCC(Oc3nccnc3N(C)C)C2)cc1 (configuration not stated) | -18%
Cc1ccc(-c2noc(CCCC(=O)N3CCc4nc5cc(-c6ccccc6)[nH]n5c(=O)c4C3)n2)cc1 | 4%
O=S(=O)(N[C@H]1CO[C@H]2[C@@H]1OC[C@@H]2Nc1nccc(-c2cccs2)n1)c1cccs1 | 10µM*
COc1ccc(CN2CCCC(c3[nH]ccc3C(N)=O)C2)cc1Cn1ccnc1 (configuration not stated) | 1%
COC(=O)c1c(NC(C)=O)c2cc(NC3CCCC(C)(C)C3)cnc2n1CC1CCCO1 (configuration not stated) | 12%
COc1cc(-c2ccnc3nc(C(C)C)nn23)cc(OC)c1OC | 0%
CN(Cc1ccc2nsnc2c1)C(=O)c1ccc(CCC(C)(C)O)cc1 | -19%
COc1ccccc1CC(=O)NCc1nnc2cc(-c3nc(C)no3)ccn12 | 6%
O=C(CC1Cc2ccccc2C1)N1CCN(CCO)CC(O)C1 (configuration not stated) | -2%
COCCNC(=O)C1COC2(CCN(C(=O)c3ccc(Cl)cc3)CC2)N1C(=O)c1ccccc1C (configuration not stated) | -1%
Cc1nnc(-c2cc(-c3ccccc3Oc3ccccc3)ccn2)n1CCN1CCOCC1 | 5%
O=C(Nc1cccc(C(F)(F)F)c1)N[C@H]1CO[C@H]2[C@@H]1OC[C@@H]2n1nnnc1-c1ccc2c(c1)OCO2 | ?
Cc1cc(Cl)ccc1S(=O)(=O)NC1CCc2nn(C)c(=O)n2CC1 (configuration not stated) | 3%
Cn1cncc1C(=O)N1CC(F)(F)C[C@H]1c1nc(C2CC2)no1 | -7%
Cc1cc(C)n(CCC(=O)NC2CCCN(c3cc(-c4ccc(Cl)cc4)[nH]n3)C2)n1 (configuration not stated) | -3%
CN(Cc1ccc(C(F)(F)F)cc1)Cc1cccn1C | -3%[70.6 µM]

Three entries already listed, sorted by count of non-hydrogen atoms, falling.
SMILES | hNpr1 antagonist
O=C(Nc1cccc(C(F)(F)F)c1)N[C@H]1CO[C@H]2[C@@H]1OC[C@@H]2n1nnnc1-c1ccc2c(c1)OCO2 | ?
CN(Cc1ccc2nsnc2c1)C(=O)c1ccc(CCC(C)(C)O)cc1 | -19%
CN(Cc1ccc(C(F)(F)F)cc1)Cc1cccn1C | -3%[70.6 µM]

(list continues)
SMILES | hNpr1 antagonist
COCC(=O)N1CCOC[C@H](Oc2ccc(C(F)(F)F)cc2)C1 | 1%[70.6 µM]
Cn1nc2n(c1=O)CCN(S(=O)(=O)c1ccc(C#N)cc1)CC2 | 5%
COCC(=O)N[C@@H]1CN(Cc2ccc(C)s2)CC[C@@H]1c1n[nH]c(C)n1 | 1%
CC(C)(C)C(=O)N1CC[C@@H](CC(=O)O)[C@@H](CCN2CCN(c3cccc(C(F)(F)F)c3)CC2)C1 | 6%
COCCNC(=O)[C@@H]1C[C@H](Oc2ccccc2)CN1C(=O)c1ccc(OC)nc1OC | -7%
Cc1cc(C)n(-c2ccc(NC(=O)C3CCCCN3C(=O)c3ccc[n+]([O-])c3)cc2)n1 (configuration not stated) | 12%
CCOc1ccccc1-c1nc(C2CC(=O)N(c3ccc(C)cc3)C2)no1 (configuration not stated) | -11%
Cc1nn(-c2ccc(C(C)C)cc2)c(C)c1[C@@H]1C=C[C@@H](NC(=O)Nc2ccccc2)C1 | ?
Cc1ccc(C2Cn3nnc(-c4noc(-c5nn(C)c6ccccc56)n4)c3CO2)cc1 (configuration not stated) | 9%
COc1ccc(C(CC(=O)N2CCCC2)c2cn(Cc3ccccc3)c3ccccc23)cc1OC (configuration not stated) | -19%
CCC(CC)N1CCCC(c2nc(-c3cccnc3)no2)CCNC(=O)CC1 (configuration not stated) | 0%
O=C(c1cccs1)N1CCC2(CC1)CC(OCC1CC1)CCO2 (configuration not stated) | -2%
COc1cccc(CN2CCN(c3nc4c(s3)c(C)nn4C)CC2=O)c1 | ?
CCc1ccc(NC(=O)N(C)CC2CCOC2)cc1 (configuration not stated) | -2%
Cc1cc(C)cc(C(=O)Nc2ccc(-c3nnc4n3CCCC4)cc2)c1 | -10%
CC(C)n1c(C2CCN(C(=O)CN3CCCCCC3)CC2)nn(C)c1=O | 4%
CC(C)n1nc(OC(C)(C)C(=O)NCc2ccncc2)c2cc(CN3CCOCC3)ccc21 | 0%
CN1C[C@H](N(C)C)CCC[C@@H](C(=O)N(C)Cc2cccnc2)CC1=O | 3%[70.6 µM]
COc1ccc2[nH]c3c(c2c1)CCN(C)C31CCN(C(=O)c2ccccc2)CC1 | 9%
Cc1n[nH]c(C)c1C(N)C(=O)N1CCN(c2ccc3nccn3n2)CC1 (configuration not stated) | 3%
COc1cccc(C(=O)N2CCC3(CC2)CC(OC)CCO3)c1 (configuration not stated) | 0%
O=C(C1CCCO1)N1CCc2[nH]nc(C(c3ccccc3)c3ccccc3)c2C1 (configuration not stated) | 5%
COc1ccc(C(=O)NC2CCN(c3cc(-c4cccs4)[nH]n3)C2)cn1 (configuration not stated) | -12%
O=C(c1cc(C2CC2)[nH]n1)N1CCc2n[nH]c(=O)n2CC1 | 3%
O=C(c1coc(CN2CCOCC2)c1)N1CCC2(CC1)[C@H](O)C[C@@H]2O | -1%
CNC(=O)[C@@H]1C[C@@H](n2cc(CNC(=O)Cc3ccccc3)nn2)CN1 | 10%
N#Cc1ccc(C(=O)N2Cc3[nH]cnc3C[C@H]2c2nc(-c3ccc4c(c3)OCO4)no2)cc1 | 0%
COc1ccc(C(=O)N2CCCn3ccnc3C2C(C)C)c(OC)c1 (configuration not stated) | -2%

Exported as labelled records: entries from further up
CNC(=O)[C@@H]1C[C@@H](n2cc(CNC(=O)Cc3ccccc3)nn2)CN1
- hNpr1 antagonist: 10%

N#Cc1ccc(C(=O)N2Cc3[nH]cnc3C[C@H]2c2nc(-c3ccc4c(c3)OCO4)no2)cc1
- hNpr1 antagonist: 0%

O=C(c1coc(CN2CCOCC2)c1)N1CCC2(CC1)[C@H](O)C[C@@H]2O
- hNpr1 antagonist: -1%

COc1ccc(C(=O)N2CCCn3ccnc3C2C(C)C)c(OC)c1 (configuration not stated)
- hNpr1 antagonist: -2%

Some of the compounds tested; count on the stated rates, not on these rows.
